# VACV E9 pol inh: blocks vaccinia virus processive DNA synthesis. normalized absorbance, % (test concentration not listed). 0.94% of 46,000 active. in vitro processive DNA synthesis, absorbance read-out; stronger effect = lower value; some inactives read as strong as hits;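 active = replicate mean up to 90% and picked by the depositor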;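 note: 100% = median of the test wells of a plate; 100 nL library stock went into each well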
# * = called active by the depositor.
SMILES,VACV E9 pol inh
CC1CC(C)(C)NC(=S)N1CC(=O)N(C)Cc1ccccc1 (stereo unspecified),102
CCOP(=O)(c1ccccc1)c1nc(-c2ccc(Cl)cc2)oc1NCc1ccccc1 (stereo unspecified),95
Cc1ccc(S(=O)(=O)N(C)c2ccccc2)s1,112
CCc1ccc(NC(=O)N(CCN(C)C)C(C)c2cccnc2)cc1 (stereo unspecified),93
COc1cc2[nH]c3c(=O)n(Cc4ccc(Cl)cc4)cnc3c2cc1OC,99
CN(C)c1ccc(/C=C2\CSC(=S)NC2=O)cc1,101
CN(C)c1c2c(c(C#N)c3nc4ccccc4n13)CCC2,98
O=S(=O)(c1ccc(Cl)cc1)N1CCCN(c2ccc(C(F)(F)F)cn2)CC1,99
O=C(COn1nnc2ccccc21)N1CCc2ccccc2C1,89
Cc1ccc(N(Cc2ccco2)C(=O)CNS(=O)(=O)c2ccc(Cl)cc2)cc1,100
O=C(Nc1ccccc1)N1CCN(c2ncccn2)CC1,88
Cc1c2cnn(-c3ccccc3)c(=O)c2c(C)n1CCCC(=O)N1CCCCC1,106
CCc1ccccc1NC(=O)CC1SC(N)=NC1=O (stereo unspecified),89
CN(C)C(=O)/C(=C\c1ccccc1)NC(=O)c1ccccc1,100
CCN1CCc2c(OCc3ccc(Cl)cc3)cccc2C1=O,89
CN(CC(=O)Nc1cccnc1)S(=O)(=O)c1cccc2cccnc12,100
O=C(NCC1CCCO1)c1cc2c(=O)[nH]c3ccccc3c2s1 (stereo unspecified),97
Cc1ccccc1OCc1nnc(N)s1,96
O=C(c1cc(S(=O)(=O)N2CCC3(CC2)OCCO3)ccc1F)N1CCC2(CC1)OCCO2,101
CC(C)NS(=O)(=O)c1ccc(NC(=O)c2ccncc2)cc1,95
Cc1ccc(NC(=O)c2ccco2)c(N)c1,96
O=C(Oc1ccc(C2=NCCS2)cc1)c1ccccc1Cl,99
Fc1cccc(NC2=NCCS2)c1,99
O=C(NCCC(c1ccccc1)c1ccccc1)c1cc2ccccc2c(=O)o1,101
CC1CCN(C(=O)/C(=C\c2ccccc2)NC(=O)c2ccccc2)CC1,101
CCCCn1ccnc1C(=O)c1cc(F)c(F)c(F)c1F,108
O=C(NC1CC1)c1ccccc1NS(=O)(=O)c1ccc(F)cc1,91
CCC(=O)Nc1cc(C)c2c(=O)oc3ccccc3c2n1,100
O=C(NCc1ccco1)C1CCCN1S(=O)(=O)c1ccc2ccccc2c1 (stereo unspecified),98
Cc1ccc(-c2nc(Nc3ccc(C)c(Cl)c3)sc2CC(=O)O)cc1,82
FC(F)(F)c1cc(Nc2ccccc2)nc(-c2ccccn2)n1,100
Cc1c(S(=O)(=O)c2ccc(Cl)cc2)csc1C(=O)Nc1cc(C(F)(F)F)ccc1N1CCCC1,112
Fc1ccc(NC(=S)N2CCc3ccccc32)cc1,98
O=C(CSc1nc2cc(Cl)ccc2s1)Nc1ccccc1Cl,100
O=S(=O)(Nc1nc(SCc2ccc(Cl)cc2)n[nH]1)c1ccc(F)cc1,97
CC(=Nc1ccc(S(=O)(=O)N2CCOCC2)cc1)Nc1ccc(C(=O)O)c(O)c1,99
O=C(CCSc1ccccc1)NC1CC1,102
C=CCNC(=O)c1ccc2c(c1)N(CC)C(=O)c1ccccc1S2,87
COc1ccc(C(=O)CSc2nc3ccccc3[nH]2)cc1,95
O=C(NCCO)c1ccc(N2C(=O)c3ccccc3C2=O)cc1,110
COc1ccc(S(=O)(=O)NCc2ccco2)cc1OC,101
O=C(c1sccc1Br)N1CCN(Cc2ccc3c(c2)OCO3)CC1,94
Cn1c(C(=O)N2CCC(C(=O)O)CC2)cc2sccc21,102
COc1ccc(-c2c(C)nn(-c3ccccc3)c2NC(C)=O)cc1OC,100
CS(C)=C1C(=O)NC(=O)N(CCc2ccc(F)cc2)C1=O,99
C[C@H]1CCC/C=C/C2C[C@H](O)C[C@H]2[C@H](O)/C=C/C(=O)O1 (stereo partly specified),98
CC1CCCN(C(=O)Cc2cccs2)C1 (stereo unspecified),103
COc1ccc(C=C2C(=O)OC(c3ccccc3)OC2=O)c(OC)c1OC (stereo unspecified),100
CCOC(=O)Cn1c2ccc(Cl)cc2c2nc3ccccc3nc21,109
Cc1ccc(-n2nnnc2-c2c[nH]c3cc(Cl)c(F)cc23)cc1,104
CC1=C(C(=O)OCCc2ccccc2)C(c2ccc(N(C)C)cc2)NC(=S)N1 (stereo unspecified),100
C=CCN1C(=O)/C(=c2\sc3nc(-c4ccccc4)nn3c2=O)c2ccccc21,100
CC1CCCCN1CCNC(=O)c1ccc2c(Cl)c3c(nc2c1)CCCC3 (stereo unspecified),91
Cc1cc2cc(NC(=O)c3ccco3)ccc2[nH]1,102
CC(c1ccco1)N(C(=O)c1ccc(C#N)cc1)c1ccccn1 (stereo unspecified),98
COc1cc(-c2cc(OC)c(C)cc2OC)c(OC)cc1C,99
Nc1ccc(-c2nc3ccccc3[nH]2)c(N)c1,99
c1ccc(NCc2ccc3c(c2)OCO3)nc1,101
Cc1nn(-c2ccccc2)c2nc(Cl)c(C(=O)O)cc12,99
COc1ccc(NC(=O)c2ccccc2I)cn1,110

# Continued.
SMILES,VACV E9 pol inh
CC(C)(C)n1nc(-c2ccc(F)cc2)c2c(N)ncnc21,106
COc1ccc(C2C(C(=O)NCC3CCCO3)c3ccccc3C(=O)N2C)cc1 (stereo unspecified),105
COC(=O)CSc1nnc(-c2cccs2)n1-c1ccc(OC)cc1,122
CCCCN(C1=NC2CS(=O)(=O)CC2S1)c1ccc(Cl)cc1 (stereo unspecified),104
COC(=O)C1CCN(C(=O)Cc2ccc(C)cc2)CC1,101
CC[n+]1c(C)csc1Nc1ccc(N2CC(C)OC(C)C2)cc1 (stereo unspecified),99
Cc1nn(Cc2cccc(C(=O)NC(=O)Nc3ccc(Cl)cc3)c2)c(C)c1Br,89
O=C(CSc1ccccn1)N1CCN(c2ccccc2)CC1,89
O=C(O)c1cc(F)cc(C(F)(F)F)c1,91
Cc1nnn(C23CC4CC(CC(C(=O)N5CCCCCC5)(C4)C2)C3)n1,96
N#Cc1ccc(-n2ccnc2)cc1,90
O=C(Nc1ccccc1)c1cccnc1Cl,95
COc1ccc(/C=C/C(=O)NC2CCN(Cc3ccccc3)CC2)cc1OC,102
CCC(=O)O[C@@H](O[P@](=O)(CCCCc1ccccc1)CC(=O)N1C[C@H](C2CCCCC2)C[C@H]1C(=O)O)C(C)C,100
N/C(CSc1nc2ccccc2s1)=N\O,100
Cc1cc(SCNC(=O)c2ccccc2)nc(C(C)C)n1,103
COC(=O)c1ccc2c(c1)C(=O)c1ccccc1CO2,109
CC1(C)OC(C)(C)/C(=C/c2ccc3cccnc3c2)C1=O,98
Oc1ccc(-c2nc(-c3ccc(F)cc3)c(-c3ccncc3)[nH]2)cc1,100
O=C(C1CCCN1c1nnc(N2CCCC2=O)s1)N1CCN(c2ccccc2)CC1 (stereo unspecified),103
O=C(O)c1ccccc1SC1CC(=O)N(C2CCCCC2)C1=O (stereo unspecified),96
O=C(O)C12CCC(C(=O)O)(CC1)CC2,103
O=C(CN1CC(c2ccccc2)CC1=O)Nc1ccccc1 (stereo unspecified),102
O=C(Cn1c2c(c(-c3ccccc3Cl)cc1=O)CCC2)NCc1cccs1,94
Cc1ccc(S(=O)(=O)N2CC3C=CC2C3)cc1 (stereo unspecified),100
Cc1c(Cl)cccc1NC1OC(=O)c2ccccc21 (stereo unspecified),119
Cc1cc2cc(CNC(=O)CCc3ccccc3)ccc2[nH]1,100
COC(CNC(=O)c1ccc2c(Cl)c3c(nc2c1)CCCC3)OC,93
N=C1c2ccccc2CN1c1ccc(Br)cc1,99
CC(C)(C)c1ccc(Cn2c(=N)n(CC(=O)O)c3ccccc32)cc1,100
O=C(O)CCC(=O)Nc1ccc(S(=O)(=O)N2CCCC2)cc1,100
COc1cccc(-n2cc(C(=O)NCCC(C)C)c3ccccc3c2=O)c1,83
CC1CC(C)CN(S(=O)(=O)N2CCCC(C(=O)NC3CCCC(C)C3C)C2)C1 (stereo unspecified),114
C=CCN1C(=O)/C(=C/c2cn(C(C)CC)c3ccccc23)C(=O)NC1=S (stereo unspecified),100
CC(Sc1ccc(Cl)cc1)C(=O)NCc1ccc2c(c1)OCO2 (stereo unspecified),104
CN1C(=O)CCN(C=O)c2ccccc21,100
O=C1CC(c2ccc3c(c2)OCCO3)Oc2ccccc21 (stereo unspecified),94
Cc1ccc(OCCN2CCN(c3ncnc4scc(-c5ccccc5)c34)CC2)cc1,100
Cc1cccc(Oc2coc3cc(OC(=O)c4cccnc4)ccc3c2=O)c1,100
COc1ccc(Oc2ccc(/C(N)=C/C#N)cc2)cc1,104
C[n+]1ccc(-c2cc[n+](C)cc2)cc1,100
COC(=O)c1sc(SC)c(-c2ccon2)c1C,99
CCOC(=O)NN1C(=O)c2ccccc2NC1c1ccc(OC)cc1 (stereo unspecified),100
CC(CN1CCCCC1)OC(=O)c1ccco1 (stereo unspecified),100
Nc1ccc(Cc2ccncc2)cc1,100
O=C1CSC(c2ccccc2)N1Cc1ccccc1 (stereo unspecified),100
Oc1c(CN2CCN(c3ccccc3)CC2)cc(Cl)c2cccnc12,96
O=C(NCCc1ccc(S(=O)(=O)N2CCCC2)cc1)c1cccs1,96
COC(CNC(=O)c1ccc(CS(=O)c2ccccc2)o1)OC (stereo unspecified),100
CCOc1ccc(OC(=O)c2sc3ncn(CC)c(=O)c3c2C)cc1,100
Cc1ccc(N(C)C(=O)Cn2c(=O)oc3cc(S(=O)(=O)N4CCCC4)ccc32)cc1,97
Fc1ccc(Nc2ncnc3sccc23)cc1,99
O=C(COc1ccccc1)N1CCNC1=O,101
CC1CCC(C(C)C)C(OC(=O)CSc2cccc[n+]2[O-])C1 (stereo unspecified),107
COC(=O)c1ccccc1Oc1c(F)c(F)nc(N2CCOCC2)c1F,100
COc1ccc(-c2noc(N3CCCCCC3)n2)cc1,106
O=C1CCN(Cc2ccccc2)C(=O)N1c1ccc(F)cc1,103
Cc1ccc(-c2cc(C(=O)NCc3cn(C)nc3C)c3cc(Br)ccc3n2)cc1,100
CC(C)c1ccc(S(=O)(=O)N2CCN(S(=O)(=O)c3ccc(C(C)C)cc3)C(C)C2)cc1 (stereo unspecified),101
O=C(Cc1cccc2ccccc12)Nc1ccc(CCC(=O)N2CCCC2)cc1,105

# (further entries)
SMILES,VACV E9 pol inh
Fc1nc(Nc2ccccc2)c2c(c1Cl)Oc1ccccc1O2,99
CC1(C)CC(=O)C2=C(C1)Nc1ccccc1NC2/C=C/c1ccccc1 (stereo unspecified),97
O=C(O)c1ccc(S(=O)(=O)c2ccc(Cl)cc2)cc1,99
COc1ccc2ncc(S(=O)(=O)c3ccccc3)c(N3CCC(C(N)=O)CC3)c2c1,98
COc1cccc(C2c3c(oc4ccc(C)cc4c3=O)C(=O)N2CCCN(C)C)c1 (stereo unspecified),98
N#Cc1sc2nc(-c3ccncc3)ccc2c1N,100
Cc1cccc(C[N+](C)(C)CCC(=O)c2ccccc2)c1,100
CC(C)[C@@H]1NC(=O)[C@H](Cc2ccccc2)NC(=O)[C@@H](CC(=O)O)NC(=O)CNC(=O)[C@H](CCCN=C(N)N)NC1=O,101
CN1CCN(c2ccc(CNS(=O)(=O)c3ccc4c(c3)CCO4)cc2)CC1,99
CSc1scc(NC(=O)c2ccc(Cl)cc2)c1S(=O)(=O)C(C)C,103
COc1ccc(N2C(=O)NC(=O)C(Cc3ccc(O)c(OC)c3)C2=O)cc1 (stereo unspecified),99
O=C1CC(c2cccc(Br)c2)c2c(c3ccccc3oc2=O)O1 (stereo unspecified),100
NC(CC1CCCCC1)C(O)C(F)(F)F (stereo unspecified),90
CN(C)CCSc1nc(-c2cccs2)cc(-c2ccc(Cl)cc2)c1C#N,99
O=c1c(-c2nn[nH]n2)coc2ccccc12,99
Cc1c(-n2cc(C(=O)O)c(=O)c3c(F)c(F)c(F)c(F)c32)c(=O)n(-c2ccccc2)n1C,100
Oc1ccc(N=c2cc(-c3ccccc3)oc3ccc(Cl)cc23)cc1,98
COc1cc2c(cc1OC)C(=O)N(Cc1ccc(C)cc1)CC2,98
CN(C)Cc1c(O)ccc2c(=O)c(Oc3ccccc3)coc12,100
CN(C)c1ccc(NC(=O)Nc2ccc(C(C)(C)C)cc2)cc1,97
CC(C)=CCOc1ccc2c(C)cc(=O)oc2c1,99

# Filtered by structure, the entries above with a tert-butyl group (3)
SMILES,VACV E9 pol inh
CC(C)(C)n1nc(-c2ccc(F)cc2)c2c(N)ncnc21,106
CC(C)(C)c1ccc(Cn2c(=N)n(CC(=O)O)c3ccccc32)cc1,100
CN(C)c1ccc(NC(=O)Nc2ccc(C(C)(C)C)cc2)cc1,97

# Grouped by structure, those above containing an aryl methoxy group (18)
SMILES,VACV E9 pol inh
COc1cc2[nH]c3c(=O)n(Cc4ccc(Cl)cc4)cnc3c2cc1OC,99
COc1ccc(C(=O)CSc2nc3ccccc3[nH]2)cc1,95
COc1ccc(S(=O)(=O)NCc2ccco2)cc1OC,101
COc1ccc(-c2c(C)nn(-c3ccccc3)c2NC(C)=O)cc1OC,100
COc1ccc(C=C2C(=O)OC(c3ccccc3)OC2=O)c(OC)c1OC (stereo unspecified),100
COc1cc(-c2cc(OC)c(C)cc2OC)c(OC)cc1C,99
COc1ccc(NC(=O)c2ccccc2I)cn1,110
COc1ccc(C2C(C(=O)NCC3CCCO3)c3ccccc3C(=O)N2C)cc1 (stereo unspecified),105
COC(=O)CSc1nnc(-c2cccs2)n1-c1ccc(OC)cc1,122
COc1ccc(/C=C/C(=O)NC2CCN(Cc3ccccc3)CC2)cc1OC,102
COc1cccc(-n2cc(C(=O)NCCC(C)C)c3ccccc3c2=O)c1,83
COc1ccc(Oc2ccc(/C(N)=C/C#N)cc2)cc1,104
CCOC(=O)NN1C(=O)c2ccccc2NC1c1ccc(OC)cc1 (stereo unspecified),100
COc1ccc(-c2noc(N3CCCCCC3)n2)cc1,106
COc1ccc2ncc(S(=O)(=O)c3ccccc3)c(N3CCC(C(N)=O)CC3)c2c1,98
COc1cccc(C2c3c(oc4ccc(C)cc4c3=O)C(=O)N2CCCN(C)C)c1 (stereo unspecified),98
COc1ccc(N2C(=O)NC(=O)C(Cc3ccc(O)c(OC)c3)C2=O)cc1 (stereo unspecified),99
COc1cc2c(cc1OC)C(=O)N(Cc1ccc(C)cc1)CC2,98

# Bioassay records (PubChem BioAssay)

# Not all compounds are listed, so the mix of outcomes need not match the whole.
